# Compound activity (PubChem)
# GALR2 ag: GALR2 (human) receptor agonism; O43603; GALR2-expressing cells, agonist activation read-out; activation, %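 (tested at 5 µM)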; hit rate 0.48% among 140,000;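 active = above mean plus 3 SD of all compounds, about 5% in these data, not always enough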;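 also: 0% = vehicle buffer wells and 100% = reference agonist at full effect; tested in CHO reporter cells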
# Target sequence (O43603 whole entry, looked up): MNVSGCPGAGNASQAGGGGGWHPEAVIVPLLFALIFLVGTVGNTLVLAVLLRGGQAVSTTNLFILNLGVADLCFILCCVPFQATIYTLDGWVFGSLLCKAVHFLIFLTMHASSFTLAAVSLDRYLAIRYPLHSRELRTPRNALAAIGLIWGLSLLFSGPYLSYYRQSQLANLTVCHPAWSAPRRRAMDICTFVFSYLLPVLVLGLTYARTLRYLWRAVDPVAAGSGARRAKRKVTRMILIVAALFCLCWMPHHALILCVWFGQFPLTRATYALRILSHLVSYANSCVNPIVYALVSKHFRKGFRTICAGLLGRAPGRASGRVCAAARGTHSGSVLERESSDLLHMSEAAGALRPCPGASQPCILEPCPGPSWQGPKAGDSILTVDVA
# PKD1 kinase inh: inhibitors of human PKD1 kinase | PKD1 kinase fluorescence polarization assay | inhibition, %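 (about 10 µM by stock and volumes)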 | hit rate 0.056% among 200,000 | AID 797;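 active = inhibition of 50% or more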;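 also: controls were vehicle for no effect and a reference inhibitor for full effect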
# RGS16-Gao HTS: regulators of human RGS16-Galphao interaction | bead-based flow cytometry RGS16-Galphao binding, fluorescence; actives lie on both sides | binding response (% of control), % at 10 µM | O15492+P09471 | hit rate 0.38% among 220,000;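 active = below 25% or above 175%, edge rows of some plates excepted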;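 also: Galphao activated by GDP with aluminum fluoride before binding; 100% = wells without compound and 0% = beads without RGS; some results beyond the cut were filed as inactive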
# Target sequence (O15492 whole entry, looked up): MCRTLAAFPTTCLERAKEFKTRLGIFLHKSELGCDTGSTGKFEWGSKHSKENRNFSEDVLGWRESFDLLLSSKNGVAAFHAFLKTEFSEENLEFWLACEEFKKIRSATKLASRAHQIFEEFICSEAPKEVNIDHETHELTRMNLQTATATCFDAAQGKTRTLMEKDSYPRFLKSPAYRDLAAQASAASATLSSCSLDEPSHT
# Target sequence (P09471 whole entry, looked up): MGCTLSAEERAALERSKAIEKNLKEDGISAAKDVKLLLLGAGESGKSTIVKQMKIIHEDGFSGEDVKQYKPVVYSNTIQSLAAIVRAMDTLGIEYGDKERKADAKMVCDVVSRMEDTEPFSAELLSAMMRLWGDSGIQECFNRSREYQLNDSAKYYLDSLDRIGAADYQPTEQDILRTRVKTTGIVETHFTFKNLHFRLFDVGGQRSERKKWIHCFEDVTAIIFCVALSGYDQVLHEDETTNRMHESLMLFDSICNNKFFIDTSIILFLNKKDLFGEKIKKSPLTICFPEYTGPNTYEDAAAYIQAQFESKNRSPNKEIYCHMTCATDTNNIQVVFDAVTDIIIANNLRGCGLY
# HSV augment: increases HSV replication in cells | HSV replication augmentation in cells, fold increase | maximum fold increase | hit rate 0.005% among 220,000;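 active = peak rise of 1.5-fold or more in the series; tested in PC3 cells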;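 also: first round at 10 µM; read as green reporter fluorescence; hits show the peak of a series up to 25 µM; 1 = signal of infected wells without compound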
# INS promoter inh: TRM-6 insulin promoter activity inhibition; TRM-6 cells (human fetal islet line), insulin promoter-eGFP reporter, imaging; reporter expression induced with tamoxifen; inhibition, % at 2 µM; hit rate 0.9% among 130,000; AID 1273;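 active = inhibition above the mean plus 3 SD, with well images judged a real hit on visual review, cut at about 60% in these data, passing the limit was not always enough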
# INS promoter inh cell count: also measured in INS promoter inh; calls as there; normalized cell count, %; measured here: cell count, toxicity; reference of the scale not given here;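 cells exposed to compound for 48 h; stained nuclei by imaging scaled within each plate; lower means fewer cells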
# HSV augment primary fold: also measured in HSV augment; calls as there; fold increase; compound at 10 µM; measured here: primary screen fold increase 10 uM; tested in PC3 cells;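 GFP signal in the first replicate; 1 = infected wells without compound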
# The depositor's hits bear a star; i = inactive; x = not tested or not shown.
# Below each compound: PKD1 kinase inh	HSV augment	RGS16-Gao HTS	INS promoter inh	GALR2 ag	HSV augment primary fold	INS promoter inh cell count
O=C1OC(/C=C/c2ccc(Cl)cc2Cl)=NC/1=C\c1cccs1
  -4.7	i	107.1	x	-1.0	0.96	x
COc1ccc(NC(=O)c2oc3ccccc3c2NC(=O)c2ccco2)c(OC)c1
  -9.8	i	94.7	-81.2	-0.4	0.97	87.3
CC(=O)NCCc1c[nH]c2ccc(OCC(O)CNC(C)(C)C)cc12 (stereo not given)
  x	i	116.0	x	x	0.8	x
CCc1nnc(NC(=O)CSc2nc(SC)ns2)s1
  1.3	i	112.4	54.5	x	0.93	112.5
CCOC(=O)C(=O)NNc1ccc(C)cc1
  1.6	i	100.1	x	-0.6	1	x
O=C(NNS(=O)(=O)c1ccc(F)cc1)c1cnn(-c2ccccc2)c1C(F)(F)F
  x	i	105.5	x	x	0.91	x
COc1ccc(N2CCN(C(=S)Nc3ccc(S(N)(=O)=O)cc3)CC2)cc1
  1.9	i	93.0	x	x	1.02	x
C#Cc1ccc([C@@H]2C=C(C(=O)N3CCN(Cc4ccccc4)CC3)O[C@H](OCC)[C@H]2CCCO)cc1
  -7.9	i	101.2	x	x	0.82	x
CC1=C(C(=O)OC(C)C)C(c2ccc(C)o2)NC(=O)N1 (stereo not given)
  -4.1	i	94.9	31.2	-2.1	0.997	124.5
O=C(Oc1cccnc1)c1ccc(Cl)c(Cl)c1
  -3.0	x	99.1	22.2	-1.0	x	98.3
O=C(COC(=O)c1cc(=O)c2ccccc2o1)NC1CCCCC1
  5.3	i	101.6	x	x	1.05	x
Cc1ccc(-c2csc(N)n2)s1
  5.0	i	105.4	68.8	-1.9	1.25	114.2
c1ccc(CCc2nn3c(Cc4ccccc4)nnc3s2)cc1
  -5.3	i	96.1	-46.0	0.0	0.94	181.6
O=C(c1ccccc1C(F)(F)F)N1CCN(S(=O)(=O)c2ccccc2)CC1
  -4.0	i	89.2	15.2	-2.3	1.03	112.3
CCCOC(=O)CSc1nnc(-c2ccccc2Cl)o1
  3.8	i	91.0	x	0.3	0.92	x

# Given field by field: part of the list above
> C#Cc1ccc([C@@H]2C=C(C(=O)N3CCN(Cc4ccccc4)CC3)O[C@H](OCC)[C@H]2CCCO)cc1
  PKD1 kinase inh: -7.9; HSV augment: i; RGS16-Gao HTS: 101.2; INS promoter inh: x; GALR2 ag: x; HSV augment primary fold: 0.82; INS promoter inh cell count: x

> CC1=C(C(=O)OC(C)C)C(c2ccc(C)o2)NC(=O)N1 (stereo not given)
  PKD1 kinase inh: -4.1; HSV augment: i; RGS16-Gao HTS: 94.9; INS promoter inh: 31.2; GALR2 ag: -2.1; HSV augment primary fold: 0.997; INS promoter inh cell count: 124.5

> O=C(Oc1cccnc1)c1ccc(Cl)c(Cl)c1
  PKD1 kinase inh: -3.0; HSV augment: x; RGS16-Gao HTS: 99.1; INS promoter inh: 22.2; GALR2 ag: -1.0; HSV augment primary fold: x; INS promoter inh cell count: 98.3

# Going on with the list.
# Below each compound: PKD1 kinase inh	HSV augment	RGS16-Gao HTS	INS promoter inh	GALR2 ag	HSV augment primary fold	INS promoter inh cell count
COc1ccc(OC)c(C(=O)CSc2nnc(-c3ccc(OC)c(OC)c3)o2)c1
  -1.5	i	107.4	28.9	0.3	0.93	139.1
Cc1c(NC(=S)NC(=O)c2ccc(Br)o2)c(=O)n(-c2ccccc2)n1C
  -5.7	i	103.5	17.6	x	0.82	87.7
CC1(C)CC(/C=C/c2ccccc2)=Nc2ccccc2N1
  x	i	106.6	x	x	0.89	x
COC(=O)c1cc(=O)nc2sc3cc(OC)ccc3n12
  1.4	i	98.4	-319.1	-1.5	0.99	51.7
Cc1ccc(NC(=O)C(C)c2cccc(C(=O)c3ccccc3)c2)cc1 (stereo not given)
  -9.7	i	102.0	-15.4	-2.1	0.87	78.5
COCCCNC(=O)c1ccccc1C(F)(F)F
  x	i	100.5	x	x	0.95	x
CC(C)(C)C(=O)/C=C/Nc1ccccc1O
  -2.4	i	96.5	-69.0	-0.1	1.07	136.5
COC(=O)C(CC(C)C)NC(=O)/C=C/c1ccccc1Cl (stereo not given)
  -3.7	i	104.3	12.8	-0.4	0.98	110.4
Cc1onc(-c2c(F)cccc2Cl)c1C(=O)Nc1cccc(S(=O)(=O)NCc2ccco2)c1
  -7.5	i	102.5	-40.0	x	0.81	146.7
CCOc1ccc(C2N(c3ccc(OC)cc3)C(=O)C3CCCN32)cc1OC (stereo not given)
  -6.7	i	97.2	x	-1.7	0.95	x
O=C(/C=C/c1ccccc1)c1ccc2c3c(cccc13)CC2
  1.0	i	47.0	x	-1.3	0.75	x
COc1cc(Cl)c(C)cc1NC(=O)CSc1ccc(C)cc1
  -5.6	i	95.1	3.3	-1.8	0.82	63.4
CCN(CC)S(=O)(=O)c1cccc(C(=O)N[C@@H](C)c2nc3ccccc3[nH]2)c1
  -0.5	i	97.0	x	x	0.9	x
O=C(NCCc1c[nH]c2ccccc12)C(=O)NCC1CCCO1 (stereo not given)
  0.6	i	102.0	x	x	0.95	x
CCOc1[nH]n(-c2ccc(Cl)cc2)c(=O)c1C=NCC(=O)OC
  -2.5	i	103.0	x	x	0.95	x
Cc1ccccc1NC(=O)Cn1c([N+](=O)[O-])cnc1C
  -0.6	i	102.9	x	1.0	0.95	x
CN1/C(=C\C(=O)Nc2ccc(Br)cc2)C(C)(C)c2ccccc21
  -5.6	i	118.6	0.0	-0.1	0.84	163.9
O=c1c2ccccc2nnn1CSc1nnc(C2COc3ccccc3O2)n1-c1ccccc1 (stereo not given)
  -12.8	i	104.5	-57.7	0.1	0.94	102.4
O=C(NC1CCCCCC1)c1cccc(COCC(F)(F)F)c1
  -4.6	i	97.5	x	-0.7	1.06	x
CC1(C)SC(=S)N(/N=C/c2ccccc2)C1N(O)C(=O)Nc1ccc([N+](=O)[O-])cc1 (stereo not given)
  -4.7	i	104.0	-5.1	-0.8	1.14	98.8
CC(C)c1ccc(OCC(O)CN2CCN(c3ccccc3)CC2)cc1 (stereo not given)
  -10.5	i	97.7	x	0.7	0.797	x
Cc1noc(C)c1COc1cccc(C(=O)OC(C)C(=O)Nc2c(C)n(C)n(-c3ccccc3)c2=O)c1 (stereo not given)
  -1.6	i	96.7	x	x	1.16	x
C=CCn1cc(C(=O)NCc2cccnc2)c(=O)c2cc(S(=O)(=O)N(CC)CC)ccc21
  12.1	i	101.5	x	-2.4	0.7	x
O=C(N/N=C/c1cccnc1)C1CCCCC1
  -1.8	i	113.5	45.5	x	0.9	118.4
COc1ccc(NC(=O)CCN2CCN(S(=O)(=O)c3ccc(Cl)cc3)CC2)cc1
  -13.3	i	100.6	-3.2	-1.2	1.01	130.2
Cc1ccccc1Nc1sc(C(=O)Nc2cccc(Cl)c2)c(N)c1C(N)=O
  -2.1	i	101.0	x	-0.3	1.03	x
COc1ccc(C2=NOC(C(=O)Nc3c(C)n(C)n(-c4ccccc4)c3=O)C2)cc1 (stereo not given)
  -15.9	i	102.4	x	-0.6	0.99	x
COc1nc(-c2ccccc2)cc(-c2ccccc2)n1
  10.1	i	107.2	-35.7	0.8	1.04	54.2
CCOc1cc(NC(=S)Nc2ccccc2OC)c(OCC)cc1NC(=O)c1ccccc1C
  -0.3	i	99.4	10.0	-3.5	0.8	81.0
COc1c(C(CC(C)C)OC(C)=O)ccc2c1C(=O)OCc1cc(C)cc(O)c1O2 (stereo not given)
  x	i	80.6	x	x	1.02	x
NS(=O)(=O)c1ccc(-c2ccc(/C=N/Nc3ccc(C(=O)O)cc3)o2)cc1
  x	i	89.6	x	x	1.05	x
CCN=C(NCC)SC1CC(=O)N(c2ccc(OCC)cc2)C1=O (stereo not given)
  -6.8	i	102.1	x	x	0.93	x
CCCC(=O)N=C1SC2CS(=O)(=O)CC2N1c1ccc(C(C)=O)cc1 (stereo not given)
  6.7	i	98.6	29.0	-3.2	0.93	106.3
CCN(CC)CCNC(=O)Cn1c(-c2ccccn2)nc2ccccc21
  -5.3	i	96.7	-231.2	-3.2	0.98	104.2
COc1ccc(C)cc1NC(=O)COC(=O)Cc1ccc(-c2ccccc2)cc1
  -0.1	i	94.2	x	-1.0	0.97	x
COc1cc2c(cc1OC)CN(CC(=O)NC(=O)NCc1ccco1)CC2
  8.5	i	110.6	x	-3.3	0.99	x
CCCCOc1ccc(C2C3CN(C(=O)OCC)CC=C3C(C#N)=C(N)C2(C#N)C#N)cc1OC (stereo not given)
  -3.1	i	91.5	-5.4	-1.3	0.97	138.5
COc1c(C)cc(S(=O)(=O)N2CCOCC2)c(C)c1C
  8.7	i	100.0	-20.0	x	0.93	64.2
COc1ccc(-c2cc(C(F)(F)F)nc(N3CCN(C)CC3)n2)cc1
  3.1	i	96.8	-33.3	-3.0	0.73	109.1
COc1ccccc1OCCC(=O)NCc1ccc2c(c1)OCO2
  2.3	i	99.2	50.0	x	0.84	92.7
CC(C)(C)n1c(=O)[nH]c2c(c1=O)CCC2
  0.3	i	101.5	x	-0.6	0.93	x
CCCCOc1cccc(-c2cc(C(=O)NNC(=S)NCC)c3ccccc3n2)c1
  -5.1	i	127.2	-26.7	-2.4	1.1	120.8
O=C(NCc1cccnc1)c1cccc(S(=O)(=O)N2CCOCC2)c1
  -8.2	i	104.3	x	-3.1	1.04	x
Cc1cc(C(=O)CN2CC(C)OC(C)C2)c(C)n1-c1ccccc1 (stereo not given)
  -8.8	i	209.5	x	-2.1	0.9	x
Cc1cccc(C(=O)NC(=O)Nc2c(C)cc(C)nc2C)c1
  1.9	i	100.5	x	x	1.02	x

# Compounds above that contain a tert-butyl group, in the order listed:
# Below each compound: PKD1 kinase inh	HSV augment	RGS16-Gao HTS	INS promoter inh	GALR2 ag	HSV augment primary fold	INS promoter inh cell count
CC(=O)NCCc1c[nH]c2ccc(OCC(O)CNC(C)(C)C)cc12 (stereo not given)
  x	i	116.0	x	x	0.8	x
CC(C)(C)C(=O)/C=C/Nc1ccccc1O
  -2.4	i	96.5	-69.0	-0.1	1.07	136.5
CC(C)(C)n1c(=O)[nH]c2c(c1=O)CCC2
  0.3	i	101.5	x	-0.6	0.93	x

# The list continues:
# Below each compound: PKD1 kinase inh	HSV augment	RGS16-Gao HTS	INS promoter inh	GALR2 ag	HSV augment primary fold	INS promoter inh cell count
Cc1cc(Cl)c(S(=O)(=O)N2CCCCCC2)cc1OCC(=O)NC1CCCCC1
  -4.0	i	99.6	-31.0	0.6	0.77	120.9
O=c1[nH][nH]c(-c2ccccc2)c1C=Nc1ccc(OC(F)(F)F)cc1
  -0.4	i	101.6	x	x	1.03	x
Cc1c(NC(=O)COc2cccc3c2OC(C)(C)C3)c(=O)n(-c2ccccc2)n1C
  -6.3	i	102.4	-40.0	x	1.07	96.1
Cc1cc(Cl)ccc1C(=O)C1CCCN(C(=O)c2cnsn2)C1 (stereo not given)
  -5.1	i	108.5	23.8	x	1.22	144.7
Cc1ccccc1-n1ccnc1SCC(=O)NCc1ccco1
  -6.5	i	97.5	x	x	0.98	x
O=C(c1n[nH]c2ccccc12)N1CCCCC1
  1.1	i	105.9	x	x	1.02	x
c1ccc(OCc2nc(-c3ccccc3)no2)cc1
  -3.4	i	96.4	-50.0	-1.9	0.94	98.5
CC(C)OC(=O)CC(=O)CSc1nc2c(cc1C#N)CCCCC2
  -2.8	i	103.7	-63.2	0.3	1.03	104.3
COc1cc(C)c(Br)cc1S(=O)(=O)N1CCCC1
  -3.0	i	88.8	3.0	-0.6	0.86	99.1
O=C(c1cccc(F)c1)N1CCN(C(=O)c2cc(-c3ccc(Cl)cc3Cl)on2)CC1
  -14.4	i	99.8	37.5	-1.1	1	165.8
O=C(CCC1CCCN(C(=O)C2(c3ccccc3)CC2)C1)N1CCN(c2ccccn2)CC1 (stereo not given)
  0.2	i	91.2	-33.3	x	0.95	101.9
COc1ccc(S(=O)(=O)N2CCC(NC(=O)Nc3ccc(C)cc3)CC2)cc1
  -4.5	i	94.7	-3.1	-2.9	0.81	101.3
COc1cc(C(=O)OCC(=O)Nc2cc(C)on2)c([N+](=O)[O-])cc1OC
  -8.9	i	97.6	x	x	1.04	x
COc1cccc(-c2cc(C(=O)NCc3cccs3)no2)c1
  x	i	100.5	x	x	0.98	x
Cc1cc(Br)c(S(=O)(=O)n2nnc3ccccc32)cc1C
  -1.3	i	107.6	24.6	-2.3	0.96	126.1
Cc1nc2ccc3nc(NC(=O)c4ccc(S(=O)(=O)N5CCOCC5)cc4)sc3c2s1
  -4.8	i	112.6	x	0.9	0.68	x
COc1ccc(CSc2nc(C)cc(=O)[nH]2)cc1
  -4.3	i	109.8	-21.9	-1.5	0.87	120.5
O=C(Cn1ncc2c(=O)oc3ccccc3c21)NCC1COc2ccccc2O1 (stereo not given)
  -4.4	i	105.0	x	-1.3	1.02	x
Nc1c(-c2ccccc2)cnn1C1CCS(=O)(=O)C1 (stereo not given)
  -8.0	i	102.0	-6.2	-1.5	0.997	84.9
CCCCCc1nnc(NC(=O)C2CCCO2)s1 (stereo not given)
  -8.1	i	91.3	13.8	-3.0	1.01	52.7
